# HCMV NEC inh: inhibitors of HCMV UL50-UL53 nuclear egress complex interaction; inhibition, % (test concentration not listed); HTRF UL50-UL53 interaction, normalized percent inhibition; hit rate 0.15% among 190,000;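 active = both replicates at 50% or more, plus weaker picks with an unusually low signal ratio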;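 also: stock transfer was 100 nL into about 20 µL; 0% = negative control wells and 100% = wells with untagged competitor protein; inactives centre near -12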
# Sa growth 42C: S. aureus growth inhibition; relative growth, % (concentration not given with the values); hit rate 0.53% among 170,000; S. aureus RN4220 growth, OD600, 20 h, 42 °C; active compounds read low;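 active = growth at 42 °C up to 50% and 20 or more points under that at 30 °C, or under 10% at both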;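 also: 300 nL library stock went into each well; scaled to the means of positive and negative controls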
# GIV Gai3 FP: GIV-Galpha-i interaction inhibition; P08753; Galpha-i3/FITC-GIV peptide fluorescence polarization, 90 min; active compounds read low; scaled: aluminum fluoride 0%, vehicle 100%; percent of control (FP), % (test concentration not listed); hit rate 0.42% among 210,000; AID 1224905;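 active = replicate mean at 85% of control or lower, very high polarization wells dropped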;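 also: lower values mean more displacement of the GIV peptide from Galpha-i3; wells of about 15 µL received 100 nL stock; the first replicate is given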
# Target sequence (P08753 whole entry, looked up): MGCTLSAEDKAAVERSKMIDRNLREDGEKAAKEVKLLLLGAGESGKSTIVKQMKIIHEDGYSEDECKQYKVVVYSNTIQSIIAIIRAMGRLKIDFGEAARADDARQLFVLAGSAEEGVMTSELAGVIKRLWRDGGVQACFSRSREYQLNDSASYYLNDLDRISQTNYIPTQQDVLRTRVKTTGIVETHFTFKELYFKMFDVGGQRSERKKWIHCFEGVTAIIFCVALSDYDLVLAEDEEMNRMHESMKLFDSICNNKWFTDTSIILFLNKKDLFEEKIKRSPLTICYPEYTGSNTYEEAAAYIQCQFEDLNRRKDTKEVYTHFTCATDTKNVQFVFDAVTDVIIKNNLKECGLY
# Sa growth 42C second temp: second read-out of Sa growth 42C, no call of its own (marks repeat the call); relative growth, %; measured here: growth at 30 °C;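 optical density after 20 h as mean of two plates; 100% = untreated growth and lower means inhibition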
# Starred values were filed as active, the others as inactive; x = no result given; & = joins results of further samples. Random draw from the library. About 0.79% of those tested had a hit in this group.
mol | HCMV NEC inh | Sa growth 42C | Sa growth 42C second temp | GIV Gai3 FP
Cc1nc2cc(NC(=O)c3ccc(S(=O)(=O)N(C)c4ccccc4)cc3)ccc2s1 | -1 | x | x | 99&107
Cc1ccc(-n2ncc(C(=O)N3CCN(c4ncccn4)CC3)c2C2CCN(C(=O)OC(C)(C)C)CC2)cc1 | x | 89 | 90 | 107
CCCCC(O)(c1ccc(N(C)C)cc1)c1ccc(N(C)C)cc1 | -2 | 59 | 54 | 105
COc1ccc(NC(=S)NC(=O)c2oc3ccccc3c2C)c(OC)c1 | -8 | 114 | 87 | 111
S=c1[nH]nc(C2CCCCC2)o1 | 22 | 111 | 95 | 96
CCOC(=O)C1CCCN(C(=O)c2sc3ncccc3c2-n2cccc2)C1 (stereo not given) | 10 | x | x | 103
Cc1cc(C)n(C(=O)COc2ccccc2)n1 | 6 | 89 | 95 | x
CC(C)OCCCNC(=O)CN1C(=O)COc2ccc(S(=O)(=O)N3CCOCC3)cc21 | -8 | 96 | 93 | 104
Cc1cc(NC(=O)N2CC=C(c3c[nH]c4ccccc34)CC2)ccc1Br | x | 97 | 77 | 192
O=C(CCNc1ccccc1)c1ccc(Cl)s1 | -3 | 85 | 84 | 98
CCCCc1cc(-c2n[nH]c(=S)o2)c2ccccc2n1 | -107 | 70 | 45 | 103
COC(=O)c1ccc(N=NN2CCCCCC2)cc1 | -14 | 88 | 80 | x
O=C(O)CCN(Cc1ccco1)S(=O)(=O)c1ccc(Cl)cc1 | 1 | 126 | 99 | 106
CC(CCc1ccccc1)NC(=O)Cn1ncc2c3ccccc3n(Cc3ccccc3F)c2c1=O (stereo not given) | -25 | 100 | 83 | 103
N/C(CC(=O)Nc1ccc2c(c1)OCCO2)=N\O | -11 | 92 | 88 | x
CCOc1ccc(C(=O)NCCc2sc(-c3cccc(F)c3)nc2C)cc1OCC | x | 109 | 81 | 99
CN(C)/N=C/c1ccc(OC(=O)c2ccccn2)cc1 | 2 | 89 | 99 | 105
COC(=O)C1=CNC=C(C(=O)OC)C1c1cccc2ccccc12 | -10 | 95 | 90 | 98
CCCN1C(=O)/C(=C/c2ccc(F)cc2)SC1=S | -32 | 106 | 86 | x
O=C(CNc1ccccc1)N/N=C/c1cn(-c2ccccc2)nc1-c1cc2ccccc2o1 | -26 | 82 | 90 | x
COc1ccc(N2C(=O)CCS2(=O)=O)cc1S(=O)(=O)N1c2ccccc2CC1C (stereo not given) | -21 | x | x | 101
O=C1CC(c2ccccc2)Cc2[nH]c(=O)c(C(=O)Nc3ccc(F)cc3)cc21 (stereo not given) | x | 84 | 86 | 99
Cc1c(C(=O)N2CCN(c3ccccn3)CC2)sc2ncnc(N3CCCCC3)c12 | -25 | x | x | 113
COc1ccc(S(=O)(=O)c2c(C(=O)N3CCCCC3)cnc3ccccc23)cc1 | -14 | x | x | 100
COc1ccc2oc(C(=O)OCC(=O)N(C)C)c(C)c2c1 | -26 | 97 | 101 | x
CSc1nc(C)cc(OCCO)n1 | x | 103 | 85 | 94
COc1cccc(C(=O)NC2CCSC2=O)c1 (stereo not given) | -26 | 97 | 100 | 99
Cc1nc2sccn2c(=O)c1S(=O)(=O)N1CCc2ccccc21 | x | 110 | 86 | 107
O=S(=O)(c1ccccc1)N1CCN=C1SCc1ccccc1 | -6 | 104 | 92 | 97
Cc1nc(COc2cccc(Cl)c2)sc1-c1ccn[nH]1 | -3 | 111 | 68 | 106
CCN1CCc2c(sc(NC(=O)c3ccc(S(=O)(=O)N(C)C4CCCCC4)cc3)c2C(N)=O)C1 | x | 121 | 73 | 111
CCOC(=O)C1CCN(C(=O)C2CCN(c3nc(-c4ccc(OCC)c(OC)c4)no3)CC2)CC1 | -3 | x | x | 102
Cc1ccc(Cc2c[nH]c(=S)s2)cc1 | 4 | 23* | 48* | x
O=C(C1CCN(c2nc3ccccc3[nH]2)CC1)N1CCN(c2cccc(Cl)c2)CC1 | x | 101 | 86 | 104
CSc1nc(-c2ccco2)nn1S(C)(=O)=O | x | 86 | 96 | 97
CC1=NC2C(C=NN2c2ccccc2)C(SCC(=O)NCCc2ccc(F)cc2)=N1 (stereo not given) | 6 | 66 | 98 | x
CSc1ncc(C(=O)NCc2ccc(S(N)(=O)=O)cc2)n1-c1ccccc1 | -4 | 96 | 97 | x
CCCOc1ccc(-c2cccc(NS(=O)(=O)c3ccccc3)c2)nn1 | x | 121 | 112 | 109
CCCCn1c(=O)c2sccc2n2c(=O)[nH]nc12 | 5 | x | x | 102
Cc1ccc(C(=O)COC(=O)c2cnccn2)cc1C | -6 | 93 | 91 | x
Cc1cc(-c2nc(C(=O)/C=C/N(C)C)cs2)no1 | -73 | 96 | 86 | 101
O=c1[nH]nc(-c2ccc(F)cc2)cc1-c1ccccc1 | -22 | 96 | 103 | 99
Oc1ccc2ccccc2c1CNn1cnnc1 | 0 | 109 | 88 | x
CCCS(=O)(=O)c1ncc(Cl)c(C(=O)Nc2sc3c(c2C(=O)OC)CCCC3)n1 | -13 | x | x | 105
COc1ccc(OCC(=O)N2CCC(C(N)=O)CC2)cc1 | 4 | 103 | 98 | x
CC(=O)c1ccc(N2CCN(C(=O)c3ccc(Cn4c(=O)[nH]c5ccccc5c4=O)cc3)CC2)cc1 | x | 104 | 98 | 107
N#CCCN(CC1CCCO1)C(=S)NC1CC2C=CC1C2 (stereo not given) | 4 | 106 | 98 | 106
O=C(NCc1ccco1)c1ccc(-n2c(-c3ccccc3)cc3c2CCCC3)cc1 | -11 | 94 | 91 | 103
Cc1ccccc1/C=C(\C#N)c1nc(-c2ccc(Cl)cc2)cs1 | -20 | 93 | 84 | 103
COc1ccc(NC(=O)OCc2ccccc2)cc1OC | -18 | 86 | 95 | 107
CN(C(=O)c1cccc(F)c1)C(C)(C)C | 5 | 105 | 102 | 111
CCn1c(=O)c2sccc2n2c(CCC(=O)Nc3ccc(OC)c(Cl)c3)nnc12 | -37 | 87 | 90 | 103
CCC(Sc1nnnn1-c1ccccc1)C(=O)NC1=NN=C(c2ccc(C)cc2)CS1 (stereo not given) | -12 | 108 | 81 | 103
CCOc1ccccc1NC(=O)N1CCN(Cc2nc3ccc(C)cc3o2)CC1 | x | 99 | 88 | 100
Cc1sc(-c2noc(C3CC3)n2)cc1S(=O)(=O)N1CCC(C(=O)N2CCOCC2)CC1 | 2 | x | x | 101
CCOCCCNC(=O)C1CCN(c2ccc(Cl)cc2)C1=O (stereo not given) | 12 | x | x | 108
COc1cccc(-c2cc(C(=O)Nc3ccccc3OC)c3ccccc3n2)c1 | -1 | x | x | 106
O=C(COc1ccc2c(c1)oc(=O)c1ccccc12)Nc1ccc(F)cc1 | 7 | 82 | 96 | x
COc1ccc(C(O)(CC(C)C)C(CN2CCOCC2)c2ccccc2)cc1 (stereo not given) | -2 | x | x | 104
O=C(O)CC1(CC(=O)Nc2cc(Cl)cc(Cl)c2)CCCCC1 | -2 | 109 | 74 | 101

# Continuation:
mol | HCMV NEC inh | Sa growth 42C | Sa growth 42C second temp | GIV Gai3 FP
COCc1cc(C)nc2sc3c(c12)NC(c1ccc(O)c(OC)c1)N(c1ccccc1)C3=O (stereo not given) | -24 | 109 | 77 | 100
COc1ccc2c(c1)c1c(c(=O)n(-c3ccc(OC)c(OC)c3)c(=O)n1Cc1ccc(C)cc1)n2C | x | 99 | 95 | 107
Cc1cc(C)cc(NC(=O)N2CCCC2C(=O)O)c1 (stereo not given) | -21 | x | x | 103
Cc1cc(CN2CCC(C)CC2)cc(C)c1O | 17 | 104 | 116 | 103
O=C(O)c1ccccc1C(=O)Nc1ccc2c(c1)OCCO2 | x | 89 | 78 | 106
COc1cccc(-c2nc3c(c(SCC(=O)N4CCOCC4)n2)Cc2c(CO)cnc(C)c2O3)c1 | 12 | 100 | 101 | 110
CS(=O)(=O)N(CC(=O)N1CCCC1)c1cccc(Cl)c1Cl | -14 | 103 | 76 | 101
O=C(COn1nnc2ccccc21)N1CCN(c2ccccc2)CC1 | -19 | 106 | 96 | x
CCCCNC(=O)Sc1ccc2ccccc2c1 | -2 | 78 | 94 | x
CC(C)NC(=O)Cn1ccc2cc(S(=O)(=O)N3CCCCCC3)ccc21 | x | 102 | 98 | 103
Cc1cccc(-c2cc(Nc3ccc(C(=O)NC4CC4)cc3)ncn2)c1 | -8 | x | x | 109
Cc1ccc(C2OCC3(CO2)COC(c2ccc(C)cc2)OC3)cc1 (stereo not given) | x | 103 | 85 | 99
Cc1ccc2nc(Cl)c3cc(C(=O)N(CCN(C)C)Cc4ccco4)sc3c2c1 | x | 109 | 84 | 105
O=C1Sc2cccc3cccc1c23 | -59 | 105 | 52 | 102
CCCC(O)c1nc2ccccc2n1CCCOc1cc(C)cc(C)c1 (stereo not given) | -1 | x | x | 103
CCOc1ccc(CNC(=O)CN2C(=O)C3CCCCN3c3ccc(C(=O)N4CCCC4)cc32)cc1 (stereo not given) | x | 107 | 97 | 109
CCN(C(=O)CSc1ncc(C#N)c(N)n1)c1ccccc1 | -32 | 96 | 99 | 104
COc1cc(/C=c2\sc3nc4ccccc4n3c2=O)ccc1OCc1ccc(C)cc1 | -11 | x | x | 108
CC1=C(C(=O)OCc2ccccc2)C(c2cccc(Oc3ccccc3)c2)NC(=O)N1 (stereo not given) | -12 | x | x | 105
Cc1cc(=O)n2nc(N3CCC(C(=O)NC4CCCC4)CC3)sc2n1 | -22 | x | x | 111
Cc1nn(C)c(C)c1/C=C/C(=O)N1CCCSc2ccccc21 | -23 | 98 | 95 | x
Cn1cc(C(CNC(=O)Nc2ccccc2)c2cccnc2)c2ccccc21 (stereo not given) | -11 | x | x | 101
Cc1ccc2nc(CNCc3ccc(S(N)(=O)=O)cc3)cc(=O)n2c1 | -32 | 82 | 90 | x
CCCSc1nnc2c(n1)-c1cccc3cccc-2c13 | -48 | 83 | 59 | 102
Cc1ccc(C)c(NC(=O)CSc2nc3c([nH]c4ccccc43)c(=O)n2-c2ccc(F)cc2)c1 | x | 124 | 76 | 108
O=C(c1ccc(F)cc1)N1c2ccccc2C=Cc2ccccc21 | x | 91 | 101 | 107
N#Cc1cc2c(N)c(C(=O)c3ccccc3)sc2nc1N | -52 | 121 | 71 | 102
COCCn1cnc2c1c(=O)n(Cc1ccc(C#N)cc1)c(=O)n2Cc1ccccc1 | -32 | 69 | 85 | x
O=C1NC(C2CCCCC2)Nc2ccccc21 (stereo not given) | -28 | 92 | 83 | 104
CCOc1ccc(-c2noc(CSc3ccc(-c4ccc(OC)c(OC)c4)nn3)n2)cc1 | 8 | x | x | 103
CCN(CC)C(=O)Cn1c(S(=O)(=O)Cc2ccccc2)nc2ccccc21 | x | 103 | 92 | 102
O=C(O)c1cccc(CSc2ncn[nH]2)c1 | -16 | 93 | 85 | 104
CC(=O)Nc1nc2nccc(C)n2n1 | -10 | 77 | 85 | 95
CCN(CC)C(=O)NCCN1C(=O)C2C3C=CC(C3)C2C1=O (stereo not given) | -30 | 88 | 79 | 110
Cc1cc(C)c2c(n1)nn1c(C)c(CCC(=O)NCc3ccccc3Cl)c(C)nc21 | 5 | 105 | 95 | 97
Cc1cccc(-n2c3nc(=O)n(C)c(=O)c-3cc3ccc(Cl)cc32)c1C | -83 | 97 | 97 | 103
CCOC(=O)CN1CCN(c2ccc(F)cc2)CC1 | -20 | 117 | 96 | 104
COc1ccc(OC)c(C2C3=C(CC(c4ccc(Cl)cc4)CC3=O)Nc3onc(C)c32)c1 (stereo not given) | -5 | x | x | 106
O=C(COc1ccccc1F)Nc1ccccc1OCc1cc(=O)n2ccccc2n1 | x | 90 | 92 | 104
CCOCC(=O)Nc1ccc(C#N)cc1 | 1 | 103 | 94 | 99
CCc1ccc2nc(NC3=NCN(Cc4ccccc4)CN3)nc(C)c2c1 | 23 | 108 | 104 | 106
Cc1ccc(-c2nnc(NCc3ccccc3)c3ccccc23)cc1S(=O)(=O)N1CCOCC1 | -14 | x | x | 100
CCC1SC(CC)C(=O)N(CC(=O)NCc2ccc(F)cc2)C1=O (stereo not given) | -26 | 98 | 87 | 99
CN(C)S(=O)(=O)Nc1cccc(N)c1 | -1 | 97 | 83 | x
O=C(Nc1ccccc1C(=O)O)c1cc2ccccc2c(=O)o1 | -109 | 97 | 77 | 101
C=CCn1nc2sc3ccccc3n2c(=O)c1=O | -37 | 99 | 87 | 103
O=C1c2ccccc2C(=O)N1Cc1ccco1 | -34 | 115 | 90 | 109
CCc1ccccc1NC(=O)C(NS(=O)(=O)c1ccc2c(c1)CCC(=O)N2)c1ccccc1 (stereo not given) | -29 | 109 | 79 | 98
N/C(Cc1cc(Cl)cc(Cl)c1)=N\O | -2 | 109 | 94 | 99
NC(=O)CN1/C(=C(/O)c2ccccc2)C(=O)c2ccccc2S1(=O)=O | -19 | 94 | 79 | 103
CCCNC(=O)CN1C(=O)COc2ccc(S(=O)(=O)N3CCCCCC3)cc21 | -30 | 110 | 89 | 106
CC(C)NC(=S)NCc1cccs1 | 4 | 96 | 106 | 103
CCOC(=O)CSc1nc2cc(OC)c(OC)cc2c2nc(CCn3c(C)nc4ccccc43)nn12 | 6 | 90 | 91 | 95

# Limited to HCMV NEC inh, Sa growth 42C and GIV Gai3 FP, for five of the compounds above:
Compound	HCMV NEC inh	Sa growth 42C	GIV Gai3 FP
CCC(Sc1nnnn1-c1ccccc1)C(=O)NC1=NN=C(c2ccc(C)cc2)CS1 (stereo not given)	-12	108	103
CCN(CC)C(=O)NCCN1C(=O)C2C3C=CC(C3)C2C1=O (stereo not given)	-30	88	110
COc1ccc(NC(=O)OCc2ccccc2)cc1OC	-18	86	107
O=C(CNc1ccccc1)N/N=C/c1cn(-c2ccccc2)nc1-c1cc2ccccc2o1	-26	82	x
CCOc1ccccc1NC(=O)N1CCN(Cc2nc3ccc(C)cc3o2)CC1	x	99	100
